D2 potentiator – Beta-Arrestin HTS for Positive Allosteric Modulators of the Human D2 Dopamine Receptor: Potentiators. actives 0.23% (n = 360,000). DiscoveRx D2 beta-arrestin cells, luminescence, 90 min; 100% = 57 uM dopamine signal. potentiation, % (no concentration beside the values). D(2) dopamine receptor (Homo sapiens), P14416; active = potentiation of 50% or more; inconclusive = 30% to 50%; inactive = 30% or less;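 note: compound concentration not given in the record; tested on top of an EC20 dose of dopamine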
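D2 cells co-treated with compound plus 50 nM dopamine (EC20) for 90 min at 37 deg C to detect potentiation. Beta-arrestin recruitment was read as enzyme-fragment luminescence after 1 h at ambient temperature. Full response was set by 57 uM dopamine.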
TRPML1 inh – qHTS for Inhibitors of the Human Mucolipin Transient Receptor Potential 1 (TRPML1) | activity change, negative = inhibition, % (concentration not given with the values) | actives 0.02% (n = 390,000) | Mucolipin-1 (Homo sapiens), Q9GZU1 | AID 624415, 2012 | TRPML1-inducible cells, Ca2+ dye fluorescence, FDSS; hits give low values; inhibition of EC80 agonist-evoked calcium signal; in the data active means activity change below about -50%; inconclusive means about -30% to -50%; inactive means above about -30%;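 note: stimulus is agonist 54-4 at its EC80 concentration; % is set by controls: 0 for no effect and ±100 for the full control effect; compound concentration not given in the record; the text of the record puts the active cut at -80%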
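TRPML1-DL cells, Tet-induced overnight (~16 h, 37 °C) at 1,500 cells/well, were loaded with Ca8 no-wash dye plus quencher for 45-90 min at room temperature. Compounds were pinned during FDSS kinetic reading; agonist 54-4 at EC80 (4 uM final) then added.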
CtBP-E1A inh – qHTS Assay for Inhibitors of the CtBP/E1A Interaction; actives 0.49% (n = 340,000); activity change, % (concentration not given with the values); AlphaScreen GST-E1A/His-CtBP binding, 1536-well; hits give low values; control for the full effect not named in the record; AID 651724, 2012; CtBP / adenovirus E1A interaction (AlphaScreen); in the data active means activity change below about -65%; inconclusive means about -30% to -65%; inactive means above about -30%; note: % is set by controls: 0 for no effect and ±100 for the full control effect
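AlphaScreen with 125 nM GST-E1A and 125 nM His-CtBP (5X stocks) in Tris pH 8.0, 300 mM NaCl, BSA, Tween 20, TCEP. Compounds preincubated 2 h at 37 deg C, then glutathione donor/nickel acceptor beads added for 1 h at 37 deg C in dark.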
TRPV1 potentiator – HTS Assay for Compounds that Act as Potentiators of the Vanilloid Receptor 1 | TRPV1-expressing cells, Fluo-8 calcium influx, capsaicin EC20 potentiation; host cell line not named in the record; control for the full effect not named in the record | potentiation, % at 8.33 µM | actives 0.02% (n = 320,000); active means potentiation above 80%; inconclusive means 30% to 80%; inactive means below 30%; note: 0% is about no effect
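TRPV1-expressing cells were cultured overnight at 35.5C and loaded with Fluo-8 calcium dye for 40 to 90 min at room temperature. After a 10 s baseline, compound was added and calcium influx was read kinetically for 3 min (ex 480/em 520 nm).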
Six1-Eya2 inh – qHTS Assay for Inhibitors of the Six1/Eya2 Interaction; actives 0.56% (n = 360,000); AID 651725, 2012; AlphaScreen GST-Six1/His-Eya2 binding, biochemical; hits give low values; control for the full effect not named in the record; activity change, % (no concentration beside the values); in the data active = activity change below about -65%; inconclusive = about -30% to -65%; inactive = above about -30%; note: % is set by controls: 0 for no effect and ±100 for the full control effect; compound concentration not given in the record
Target sequence (O00167 whole entry, looked up): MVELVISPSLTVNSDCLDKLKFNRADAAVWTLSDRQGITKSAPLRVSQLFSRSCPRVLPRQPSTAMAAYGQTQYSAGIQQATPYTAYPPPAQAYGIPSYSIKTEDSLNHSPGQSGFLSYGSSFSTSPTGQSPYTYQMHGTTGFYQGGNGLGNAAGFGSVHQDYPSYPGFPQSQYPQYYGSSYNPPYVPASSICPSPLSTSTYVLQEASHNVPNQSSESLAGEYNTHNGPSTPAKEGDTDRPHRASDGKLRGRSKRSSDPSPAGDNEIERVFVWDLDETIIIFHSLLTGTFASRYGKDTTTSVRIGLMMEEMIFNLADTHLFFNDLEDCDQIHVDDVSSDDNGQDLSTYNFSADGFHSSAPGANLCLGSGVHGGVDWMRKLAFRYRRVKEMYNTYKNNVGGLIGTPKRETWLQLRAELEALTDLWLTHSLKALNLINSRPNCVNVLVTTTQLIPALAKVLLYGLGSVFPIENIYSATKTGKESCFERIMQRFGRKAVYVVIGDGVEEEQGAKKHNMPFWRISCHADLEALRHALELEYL
Target sequence (Q15475 whole entry, looked up): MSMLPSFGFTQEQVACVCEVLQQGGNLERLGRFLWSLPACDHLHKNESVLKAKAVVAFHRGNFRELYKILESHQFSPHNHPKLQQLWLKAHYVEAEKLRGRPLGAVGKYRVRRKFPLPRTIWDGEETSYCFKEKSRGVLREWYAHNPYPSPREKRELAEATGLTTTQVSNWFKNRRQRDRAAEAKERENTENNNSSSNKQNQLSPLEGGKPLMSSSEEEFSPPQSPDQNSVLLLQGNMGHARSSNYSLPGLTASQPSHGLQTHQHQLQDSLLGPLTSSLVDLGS
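Homogeneous AlphaScreen proximity assay pairing GST-Six1 with His-tagged Eya2 (added as 5X mix: 250 nM and 500 nM) in 50 mM Tris pH 8.0, 300 mM NaCl, 1 mM TCEP. Glutathione donor and nickel acceptor beads; 1 h, 37 °C, dark.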
TRPML1 agonist – qHTS for Agonists of the Human Mucolipin Transient Receptor Potential 1 (TRPML1). Mucolipin-1 (Homo sapiens), Q9GZU1. TRPML1-expressing cells, Ca2+ dye fluorescence, FDSS; host cell line not named in the record; reference of the full effect not given here. activation, % (test concentration not listed). actives 0.12% (n = 410,000). AID 624414, 2012; in the data active = activation above about 50%; inconclusive = about 30% to 50%; inactive = below about 30%; note: 0% is about no effect; the text of the record puts the active cut at 80%
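Agonist activity was taken from a 110 s kinetic Ca2+ dye read on the FDSS after pinning compounds onto TRPML1-DL cells. The cells were seeded at 1,500/well with Tet inducer, incubated about 16 h, then dye-loaded at room temperature.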
Starred values were filed as active, the others as inactive; ? = inconclusive; . = not tested or not shown; & = joins results of further samples. Rows are unselected, and some 0.95% of all compounds hit somewhere here.

canonical_smiles	D2 potentiator	TRPML1 inh	CtBP-E1A inh	TRPV1 potentiator	Six1-Eya2 inh	TRPML1 agonist
CCOC(=O)C1=C(CSc2nc(-c3ccncc3)ccc2C#N)OC(N)=C(C#N)C1c1ccc(OC)cc1 (stereo not drawn)	18	10	-27	5	-19	2.9
COc1ccccc1C1OCC(C)(C)CO1	-2	3	3	.	3	-0.6
CCn1c(=O)cc(OCC(=O)N2CCCCCC2)c2ccccc21	-19	2	1	1	-8	-0.3
Cc1ccc(C(=O)NCC(C)(C)O)cc1	-2	-3	8	0	7	-1.2
CCOc1ccccc1N(C(=O)c1snc(C(N)=O)c1N)C(C(=O)NCC1CCCO1)c1ccc2ncccc2c1 (stereo not drawn)	0	28	5	-1	4	0.1
CCc1nc(NCCCn2ccnc2)c2oc3ccccc3c2n1	-9	-6	-8	-10	-9	-1.3
Cc1[nH]c(=O)nc(SCc2cccc(Cl)c2)c1C#N	10	31	-5	5	-2	2.4
CCc1nnc(NC(=O)c2ccc(S(=O)(=O)N3CCCC3)cc2)s1	-6	10	-9	9	2	0.0
Clc1ccc(C2=Nn3c(nnc3-c3cccs3)SC2)cc1	-9	4	25	-6	12	2.4
CCn1c(SCC(=O)Nc2nnc(C)s2)nnc1-c1ccncc1	-11	0	-6	7	-2	0.2
COc1ccccc1N1CCN(C(=O)CCc2ccccc2)CC1	-1	31	-13	-1	10	0.2
COCCN(CCOC)C(=O)COC(=O)c1cc([N+](=O)[O-])ccc1Cl	-1	-13	3	2	5	0.2
O=C1OCc2cccc([N+](=O)[O-])c21	-12	78	8	6	12	-0.2
O=S(=O)(NC1CCCC1)c1cccc(S(=O)(=O)N2CCC(n3nnc4ccccc43)CC2)c1	-11	5	1	2	-1	0.0
O=C(COc1cc(=O)n2c(n1)SCCC2)c1ccccc1	1	8	1	2	2	-1.2
COc1ccc(NC(=O)Cn2nnc(C(=O)NCCc3ccc(OC)c(OC)c3)c2N)c(OC)c1	-4	2	.	2	-1	2.0
CN(C)C(CNc1ccc(S(C)(=O)=O)cc1[N+](=O)[O-])c1ccccc1 (stereo not drawn)	-6	10	-3	1	-17	2.6
CN(C)S(=O)(=O)c1cccc(C(=O)N2CCc3ccccc32)c1	6	-9	-1	1	8	-0.6
CC1(C)Cc2c(sc(NC(=O)COc3ccccc3)c2C#N)C(C)(C)N1	-16	37	9	2	-4	-0.3
COc1ccc(NC(=O)CSc2nc3ccccc3nc2N2CCCC2)cc1	0	-15	9	3	15	1.2
COc1cccc(C(O)c2ncc(-c3ccccc3OC)[nH]2)c1 (stereo not drawn)	-7	.	1	.	-14	-0.7
O=C(c1cc(=O)[nH]c2ccccc12)N1CCN(c2cccc(C(F)(F)F)c2)CC1	1	-4	-1	2	-2	-0.6
COc1ccc(-c2cn3c(C)c(C(=O)N4CCc5ccccc5C4)sc3n2)cc1	-2	0	-20	-6	-3	0.1
O=C(Nc1nnc(C2CC2)s1)c1cc(S(=O)(=O)N2CCN(c3ccccc3)CC2)ccc1Cl	-8	-11	-12	4	-7	0.9
O=C(O)Cc1cccc2ccccc12	-2	-5	3	1	0	0.5
CC1CN(S(=O)(=O)c2cccc(C(=O)OCC(=O)N3CCCCCC3)c2)CC(C)O1 (stereo not drawn)	-2	8	2	.	3	0.4
Cc1ccccc1NC(=O)c1ccc(Cn2cc([N+](=O)[O-])cn2)o1	0	-3	2	-8	5	2.6
CCc1ccn2cc(-c3cc(-c4ccccc4)no3)nc2c1	2	14	.	-4	1	3.6
COc1ccc(S(=O)(=O)N2CCc3ccccc32)cc1C(=O)Nc1ccc(C(N)=O)cc1	-3	37	-3	7	-10	3.6
Cc1cc(C)nc(SCC(=O)c2ccc3c(c2)OCCO3)n1	-5	18	7	-17	4	0.9
O=C1/C(=C/c2ccccc2)Oc2cc(OC(=O)N3CCOCC3)ccc21	-3	-14	-13	-25	7	-0.3
COc1ccc(S(=O)(=O)Cc2ccc(C(=O)N3CCN(C4CCCCC4)CC3)o2)cc1	-7	5	2	.	-6	-0.6
COc1cc(OC)cc(C(=O)OCC(=O)N(C)c2ccccc2)c1	-4	11	-8	0	-7	1.0
Cn1c(-[n+]2c(-c3ccccc3)cc(-c3ccccc3)cc2-c2ccccc2)nc2cc([N+](=O)[O-])ccc21	6	31	3	25	0	1.7
CCOC(=O)C1CCN(C(=O)c2oc3ccc4c(c3c2C)C(O)CC2(CCCCC2)O4)CC1 (stereo not drawn)	0	-6	-1	-5	-5	-1.3
CCOC(=O)C(C(=O)OCC)C1CS(=O)(=O)CC1C(C(=O)OCC)C(=O)OCC (stereo not drawn)	-6	18	-1	16	1	1.6
COc1ccccc1N(CC(=O)Nc1cccnc1)S(=O)(=O)c1ccccc1	-6	-5	5	3	3	0.1
Cc1[nH]c2ccc3ncccc3c2c1C	-9	-4	-7	4	-13	-0.1
CCOC(=O)c1c(S(=O)(=O)NCC(=O)NCc2ccc(C)cc2)c(C)n(C)c1C	1	-1&-17	.	4	-2	-0.3&0.9
CC(Oc1cccc(Cl)c1)C(=O)Nc1ccccc1N1CCCCC1 (stereo not drawn)	-17	-14	23	-14	27	1.3
COCc1cc(/C=N\NC(=O)Cc2ccc(OC)cc2)ccc1OC	-28	-9	-2	9	-3	-0.7
CC1=NN(C(=O)Cc2ccccc2)C(O)(c2cccnc2)C1 (stereo not drawn)	-6	7	10	17	3	0.7
Clc1ccc(CSc2cc3c(nn2)-c2ccccc2CC3)cc1Cl	-3	17	21	19	13	3.0
Cc1nn(-c2ccccc2)nc1C(=O)c1c(C)[nH]n(-c2ccccc2)c1=O	-1	-4	-3	13	6	5.1
CCOCCCNC(=O)C(NC(=O)Cc1c[nH]c2ccccc12)c1ccccc1 (stereo not drawn)	-2	-11	-13	5	6	-1.0
CC(=O)Nc1ccc2sccc2c1	-4	26	-2	-6	10	-0.5
Cc1onc(-c2c(Cl)cccc2Cl)c1C(=O)c1ccccc1	-8	-5	6	-12	2	1.7
CN(C(=O)c1ccc(NC(=O)Cc2cccc(NC(=O)C3CCN(C(=O)C4CCCCC4)CC3)c2)cc1)C1CCCC1	-13	34	-1	-6	-2	-0.6
COc1cc(N=Nc2ccc(C(=O)N(C)C)cc2)c(C)cc1N	-10	-5	-11	.	-15	-1.3
Cc1cc(C)c(S(=O)(=O)N2CCCC2=O)cc1N(C)S(C)(=O)=O	-3	9	8	-57	-5	-0.5
Cc1cccc(OCCC(=O)Nc2ccc(N3CCOCC3)cc2N2CCOCC2)c1	-9	10	-13	-4	0	0.5
O=C1CCCCC1Sc1nnc(-c2ccc3c(c2)OCO3)o1 (stereo not drawn)	-6	-6	4	-33	5	0.0
CC(C)(C)c1ccc(C(=O)NNC(=O)c2ccccc2Br)cc1	-10	6	1	2	1	-0.1
CCN(CC)c1ccc(/C=N/N2CCN(c3ccccn3)CC2)cc1	-12	11	-5	.	-6	-0.8
NS(=O)(=O)c1ccc(CCNC(=O)C(=O)NCC2OCCN2S(=O)(=O)c2ccc(Cl)cc2)cc1 (stereo not drawn)	-2	-15	1	-23	26	-0.3
Cc1cc(=O)oc2cc(OCc3ccc(C(=O)N4CCN(c5ccc([N+](=O)[O-])cc5)CC4)cc3)ccc12	2	7	-7	-5	5	0.4
COc1ccc(-c2nnc(SCC(C)C)o2)cc1	-1	-3	22	-19	15	1.5
O=C(NCC1CCCO1)C1CCCN(S(=O)(=O)c2ccc(Br)cc2)C1 (stereo not drawn)	-3	?	3	18	7	-0.1

By substructure, the entries above containing an aryl thioether with sulfur outside any ring.
canonical_smiles	D2 potentiator	TRPML1 inh	CtBP-E1A inh	TRPV1 potentiator	Six1-Eya2 inh	TRPML1 agonist
CCOC(=O)C1=C(CSc2nc(-c3ccncc3)ccc2C#N)OC(N)=C(C#N)C1c1ccc(OC)cc1 (stereo not drawn)	18	10	-27	5	-19	2.9
Cc1[nH]c(=O)nc(SCc2cccc(Cl)c2)c1C#N	10	31	-5	5	-2	2.4
CCn1c(SCC(=O)Nc2nnc(C)s2)nnc1-c1ccncc1	-11	0	-6	7	-2	0.2
COc1ccc(NC(=O)CSc2nc3ccccc3nc2N2CCCC2)cc1	0	-15	9	3	15	1.2
Cc1cc(C)nc(SCC(=O)c2ccc3c(c2)OCCO3)n1	-5	18	7	-17	4	0.9
Clc1ccc(CSc2cc3c(nn2)-c2ccccc2CC3)cc1Cl	-3	17	21	19	13	3.0
O=C1CCCCC1Sc1nnc(-c2ccc3c(c2)OCO3)o1 (stereo not drawn)	-6	-6	4	-33	5	0.0
COc1ccc(-c2nnc(SCC(C)C)o2)cc1	-1	-3	22	-19	15	1.5
